Vaccinia inh – blocks a specific stage of Vaccinia orthopoxvirus infection | AID 1053133 | activity change (mCherry), % (test concentration not listed) | actives 0.01% (n = 89,000) | Vaccinia-infected cells, mCherry/Venus stage reporter fluorescence; hits give low values; some inactives read as strong as hits;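 active = mCherry past -33% and 40 or more points under the early reporter, replicates agreeing; inconclusive = past -33% without that gap or agreement; tested in A549 cells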;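 also: scaled between vehicle wells and reference inhibitor wells; 23 nL library stock went into each well; one replicate is shown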
Vaccinia inh Venus – recorded beside Vaccinia inh, whose call it bears; activity change (Venus), %; measured here: Venus reporter, other viral stage;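 negative = less Venus signal; first of two replicates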
Numbers without * were called inactive; & = joins results of further samples. This is a subset (hit frequency here may not be typical).

For COc1ccc(S(=O)(=O)Nc2ccc3c(c2)C(=O)N([C@H](C)CO)C[C@H](C)[C@H](CN(C)CC2CC2)OCCCC[C@H](C)O3)cc1 the results were Vaccinia inh -11 and Vaccinia inh Venus -7.
Screening CCCNC(=O)[C@@H]1[C@@H](CO)[C@@H]2Cn3c(ccc(-c4ccccc4F)c3=O)[C@@H]2N1C(C)=O returned Vaccinia inh 7 and Vaccinia inh Venus 1.
COc1ccc(NC(=O)Nc2ccc3c(c2)C(=O)N([C@@H](C)CO)C[C@@H](C)[C@H](CN(C)S(=O)(=O)c2cccs2)OCCCC[C@@H](C)O3)cc1 was read as Vaccinia inh -1 and Vaccinia inh Venus 9.
`Cc1noc(C)c1NC(=O)N(C)C[C@H]1Oc2c(NC(=O)CCCCCC(=O)Nc3ccccc3N)cccc2C(=O)N([C@@H](C)CO)C[C@H]1C` gave Vaccinia inh 25 and Vaccinia inh Venus 23.
`CCCNC(=O)Nc1ccc2c(c1)OC[C@@H](C)N(C(=O)C1CCOCC1)C[C@H](C)[C@H](OC)CN(C)C2=O` gave Vaccinia inh 7 and Vaccinia inh Venus 7.
`C[C@H](CO)N1C[C@H](C)[C@H](CN(C)C(=O)c2ccccn2)Oc2ncc(-c3cccc(C#N)c3)cc2C1=O` gave Vaccinia inh -9 and Vaccinia inh Venus 7.
C/C=C/c1ccc2c(c1)O[C@H](CN(C)Cc1cccc(F)c1)[C@H](C)CN([C@@H](C)CO)S2(=O)=O was read as Vaccinia inh inconclusive.
Screening CNC[C@H]1OCCCC[C@@H](C)Oc2ccc(N)cc2C(=O)N([C@@H](C)CO)C[C@H]1C returned Vaccinia inh -14 and Vaccinia inh Venus -13.
Screening COc1ccccc1S(=O)(=O)N[C@H]1C=C[C@@H](CC(=O)NCc2cccc(F)c2)O[C@@H]1CO returned Vaccinia inh 9 and Vaccinia inh Venus 6.
Screening N#C[C@@H]1[C@@H](c2ccc(-c3ccccc3F)cc2)[C@H](CO)N1C(=O)C1CCOCC1 returned Vaccinia inh -33 and Vaccinia inh Venus -19.
For C[C@@H]1CN([C@H](C)CO)C(=O)c2cc(C3=CCCCC3)cnc2O[C@@H]1CN(C)CC1CCOCC1 the results were Vaccinia inh -15 and Vaccinia inh Venus -5.
C[C@H](CO)N1C[C@H](C)[C@@H](CN(C)C(=O)Nc2cccc(Oc3ccccn3)c2)OCc2cnnn2CCCC1=O was read as Vaccinia inh 9&8 and Vaccinia inh Venus 5&6.
`C[C@H](CO)N1C[C@H](C)[C@@H](CN(C)C(=O)CN(C)C)Oc2cc(C#Cc3cccnc3)ccc2S1(=O)=O` gave Vaccinia inh 8 and Vaccinia inh Venus -1.
Screening C[C@@H]1CN([C@H](C)CO)C(=O)c2cc(NS(=O)(=O)c3cccs3)ccc2O[C@H]1CN(C)S(=O)(=O)c1ccc(F)cc1 returned Vaccinia inh 14 and Vaccinia inh Venus 8.
For COc1ccc(CN(C)C[C@@H]2Oc3ccc(NC(=O)NC(C)C)cc3CC(=O)N([C@H](C)CO)C[C@@H]2C)cc1 the results were Vaccinia inh -8 and Vaccinia inh Venus -11.
For O=C(Cc1ccncc1)NCC[C@@H]1CC[C@@H](NC(=O)Nc2ccc(Cl)cc2)[C@H](CO)O1 the results were Vaccinia inh 22 and Vaccinia inh Venus 25.
`O=C(Cc1ccncc1)NCC[C@H]1CC[C@@H](NC(=O)C2CCCC2)[C@H](CO)O1` gave Vaccinia inh -7 and Vaccinia inh Venus 1.
`CC(C)NC(=O)N(C)C[C@H]1Oc2ccc(NC(=O)Nc3cccc4ccccc34)cc2C(=O)N([C@H](C)CO)C[C@H]1C` gave Vaccinia inh 2 and Vaccinia inh Venus 4.
CCCN(C)C[C@H]1Oc2cc(C#Cc3cccnc3)ccc2S(=O)(=O)N([C@@H](C)CO)C[C@H]1C was read as Vaccinia inh -1 and Vaccinia inh Venus -2.
For CC(C)NC(=O)Nc1ccc2c(c1)C(=O)N([C@H](C)CO)C[C@H](C)[C@@H](CN(C)CC1CC1)OCCCC[C@@H](C)O2 the results were Vaccinia inh 7 and Vaccinia inh Venus 2.
For COc1ccccc1CNC(=O)C[C@H]1C[C@H]2c3cc(N(C)C)ccc3O[C@H]2[C@@H](CO)O1 the results were Vaccinia inh 4 and Vaccinia inh Venus 6.
Screening COc1ccc(NC(=O)Nc2ccc3c(c2)C(=O)N([C@@H](C)CO)C[C@H](C)[C@H](CN(C)Cc2ccc4c(c2)OCO4)O3)cc1 returned Vaccinia inh -4 and Vaccinia inh Venus -6.
For COc1ccccc1S(=O)(=O)N[C@H]1CC[C@H](CCNC(=O)C2CCCCC2)O[C@@H]1CO the results were Vaccinia inh 8 and Vaccinia inh Venus 9.
Screening C[C@H](CO)N1C[C@H](C)[C@H](CN(C)C(=O)c2ccccn2)Oc2ncc(-c3ccccc3F)cc2C1=O returned Vaccinia inh 9 and Vaccinia inh Venus 11.
`COCC#Cc1cnc2c(c1)C(=O)N([C@@H](C)CO)C[C@@H](C)[C@@H](CN(C)C(C)=O)O2` gave Vaccinia inh 14 and Vaccinia inh Venus 10.
For O=C(Nc1cccc(F)c1)N1C[C@H]2[C@@H](c3ccccc31)[C@H](CO)N2C(=O)c1cccnc1 the results were Vaccinia inh 5 and Vaccinia inh Venus 0.
Screening C[C@H]1CN([C@@H](C)CO)C(=O)c2cc(NC(=O)Nc3cccc4ccccc34)ccc2O[C@@H]1CN(C)C(=O)Nc1ccc(C(F)(F)F)cc1 returned Vaccinia inh 4 and Vaccinia inh Venus 9.
For C[C@H](CO)N1C[C@H](C)[C@H](CN(C)Cc2ccncc2)Oc2ccc(NC(=O)Nc3ccc(F)cc3)cc2C1=O the results were Vaccinia inh -7 and Vaccinia inh Venus -7.
C[C@@H]1CN([C@H](C)CO)C(=O)c2cccc(NC(=O)C3CCCCC3)c2O[C@H]1CN(C)C(=O)Nc1ccc(C(F)(F)F)cc1 was read as Vaccinia inh -22 and Vaccinia inh Venus -19.
C[C@H](CO)N1C[C@H](C)[C@@H](CN(C)C(=O)c2ccccn2)Oc2ncc(C3=CCCCC3)cc2C1=O was read as Vaccinia inh 32 and Vaccinia inh Venus 17.

Reprinted from the listing for reference:
For COc1ccccc1S(=O)(=O)N[C@H]1CC[C@H](CCNC(=O)C2CCCCC2)O[C@@H]1CO the results were Vaccinia inh 8 and Vaccinia inh Venus 9.
Screening C[C@H](CO)N1C[C@H](C)[C@H](CN(C)C(=O)c2ccccn2)Oc2ncc(-c3ccccc3F)cc2C1=O returned Vaccinia inh 9 and Vaccinia inh Venus 11.
`COCC#Cc1cnc2c(c1)C(=O)N([C@@H](C)CO)C[C@@H](C)[C@@H](CN(C)C(C)=O)O2` gave Vaccinia inh 14 and Vaccinia inh Venus 10.
For O=C(Nc1cccc(F)c1)N1C[C@H]2[C@@H](c3ccccc31)[C@H](CO)N2C(=O)c1cccnc1 the results were Vaccinia inh 5 and Vaccinia inh Venus 0.
Screening C[C@H]1CN([C@@H](C)CO)C(=O)c2cc(NC(=O)Nc3cccc4ccccc34)ccc2O[C@@H]1CN(C)C(=O)Nc1ccc(C(F)(F)F)cc1 returned Vaccinia inh 4 and Vaccinia inh Venus 9.
For C[C@H](CO)N1C[C@H](C)[C@H](CN(C)Cc2ccncc2)Oc2ccc(NC(=O)Nc3ccc(F)cc3)cc2C1=O the results were Vaccinia inh -7 and Vaccinia inh Venus -7.
C[C@@H]1CN([C@H](C)CO)C(=O)c2cccc(NC(=O)C3CCCCC3)c2O[C@H]1CN(C)C(=O)Nc1ccc(C(F)(F)F)cc1 was read as Vaccinia inh -22 and Vaccinia inh Venus -19.
C[C@H](CO)N1C[C@H](C)[C@@H](CN(C)C(=O)c2ccccn2)Oc2ncc(C3=CCCCC3)cc2C1=O was read as Vaccinia inh 32 and Vaccinia inh Venus 17.

(further entries)
Screening C[C@@H]1CN([C@@H](C)CO)C(=O)c2cccc(NS(=O)(=O)c3ccc(F)cc3)c2O[C@@H]1CN(C)S(C)(=O)=O returned Vaccinia inh 11 and Vaccinia inh Venus 9.
For O=C(C1CCC1)N1C[C@@H]2[C@H](c3ccccc31)[C@H](CO)N2C(=O)c1ccccc1 the results were Vaccinia inh -3 and Vaccinia inh Venus 6.
`C[C@@H]1CN([C@H](C)CO)C(=O)c2cc(-c3ccc(C#N)cc3)cnc2O[C@H]1CN(C)C(=O)c1cccnc1` gave Vaccinia inh 5 and Vaccinia inh Venus 9.
Screening C[C@@H]1CN([C@@H](C)CO)C(=O)Cc2cc(NC(=O)CCN3CCOCC3)ccc2O[C@@H]1CN(C)CC1CCCCC1 returned Vaccinia inh 1 and Vaccinia inh Venus 19.
For O=C(CC1CC1)N1CC(=O)N2[C@H](C1)[C@H](c1ccc(C#Cc3ccccc3)cc1)[C@@H]2CO the results were Vaccinia inh inconclusive.
CN1C(=O)c2cc(NS(=O)(=O)c3ccc(Cl)cc3)ccc2OC[C@H]2O[C@@H](CC(=O)N3CCc4ccccc4C3)CC[C@H]21 was read as Vaccinia inh -18 and Vaccinia inh Venus -9.
CO[C@@H]1CN(C)C(=O)c2cc(NC(C)=O)ccc2OC[C@@H](C)N(Cc2nccs2)C[C@H]1C was read as Vaccinia inh 10 and Vaccinia inh Venus 15.
Screening O=C(C[C@@H]1C[C@H]2c3cc(NS(=O)(=O)c4ccc(F)cc4)ccc3O[C@H]2[C@@H](CO)O1)NCc1ccncc1 returned Vaccinia inh 11 and Vaccinia inh Venus 8.
`CN1C(=O)c2cc(NC(=O)c3cccc(F)c3)ccc2OC[C@@H]2O[C@H](CC(=O)Nc3ccccc3)CC[C@@H]21` gave Vaccinia inh -31 and Vaccinia inh Venus -25.
`CN1CCN(C(=O)C[C@@H]2CC[C@@H]3[C@H](COC[C@H](O)CN3S(=O)(=O)c3cccc(Cl)c3)O2)CC1` gave Vaccinia inh 9 and Vaccinia inh Venus 5.
`COCC#Cc1ccc([C@H]2[C@@H](CO)N3CCCCN(Cc4cncnc4)C[C@@H]23)cc1` gave Vaccinia inh 20 and Vaccinia inh Venus 13.
Screening C[C@H](CO)N1C[C@H](C)[C@@H](CN(C)Cc2cccc(F)c2)Oc2ncc(C3=CCCC3)cc2C1=O returned Vaccinia inh 4 and Vaccinia inh Venus -5.
For O=C(C[C@@H]1C[C@H]2c3cc(NC(=O)Nc4ccccc4F)ccc3O[C@H]2[C@H](CO)O1)NC1CCCC1 the results were Vaccinia inh -7 and Vaccinia inh Venus -12.
Screening COc1ccc(NC(=O)Nc2ccc3c(c2)C(=O)N([C@H](C)CO)C[C@@H](C)[C@H](CN(C)S(=O)(=O)c2ccc(Cl)cc2)O3)cc1 returned Vaccinia inh 5 and Vaccinia inh Venus 1.
Screening CS(=O)(=O)N1CC2(C1)[C@@H](c1ccccc1)[C@H](CO)N2Cc1ccc(F)cc1 returned Vaccinia inh 3 and Vaccinia inh Venus 13.
COC(=O)C[C@@H]1C[C@H]2c3cc(NC(=O)Cc4ccncc4)ccc3O[C@H]2[C@@H](CO)O1 was read as Vaccinia inh 10 and Vaccinia inh Venus 4.
For COc1ccc(NC(=O)N(C)C[C@@H]2Oc3ccc(NC(=O)Nc4ccc(F)cc4)cc3CC(=O)N([C@@H](C)CO)C[C@H]2C)cc1 the results were Vaccinia inh 14 and Vaccinia inh Venus 13.
`Cc1noc(C)c1NC(=O)N(C)C[C@H]1Oc2ccc(NC(=O)Nc3ccc(F)cc3)cc2C(=O)N([C@H](C)CO)C[C@H]1C` gave Vaccinia inh 16 and Vaccinia inh Venus 12.
CN(C)CC#Cc1ccc([C@@H]2[C@H]3CN(C(=O)Nc4cc(F)ccc4F)CCCCN3[C@H]2CO)cc1 was read as Vaccinia inh -30 and Vaccinia inh Venus -20.
For CCCN1C[C@@H](C)[C@@H](OC)CN(C)C(=O)c2ccc(NC(=O)C3CCOCC3)cc2OC[C@@H]1C the results were Vaccinia inh 15 and Vaccinia inh Venus 18.
C[C@H]1CN([C@@H](C)CO)C(=O)c2cccc(NS(C)(=O)=O)c2O[C@@H]1CN(C)Cc1ccncc1 was read as Vaccinia inh 8 and Vaccinia inh Venus 4.
`COc1cccc(NC(=O)N(C)C[C@@H]2OCc3ccccc3-c3ccccc3C(=O)N([C@@H](C)CO)C[C@H]2C)c1` gave Vaccinia inh 11 and Vaccinia inh Venus -5.
For CO[C@H]1CN(C)C(=O)c2cc(NS(C)(=O)=O)ccc2OC[C@H](C)N(CC2CCOCC2)C[C@H]1C the results were Vaccinia inh 10 and Vaccinia inh Venus 9.
`COc1ccccc1-c1cnc2c(c1)C(=O)N([C@H](C)CO)C[C@H](C)[C@H](CN(C)Cc1cncnc1)O2` gave Vaccinia inh 15 and Vaccinia inh Venus 6.
C[C@@H]1CN([C@H](C)CO)S(=O)(=O)c2ccc(C#CC(C)(C)O)cc2O[C@@H]1CN(C)C(=O)C1CCC1 was read as Vaccinia inh 2 and Vaccinia inh Venus -5.
CCC(=O)Nc1ccc2c(c1)C(=O)N(C)C[C@H](OC)[C@@H](C)CN(C(=O)c1ccccn1)[C@@H](C)CO2 was read as Vaccinia inh 0 and Vaccinia inh Venus -1.
`O=C(C[C@@H]1CC[C@H]2[C@@H](COC[C@@H](O)CN2C(=O)c2ccccc2F)O1)N1CCCCC1` gave Vaccinia inh 26 and Vaccinia inh Venus 11.
`CC(C)CC#Cc1ccc2c(c1)O[C@@H](CN(C)C(=O)Cc1ccccc1)[C@@H](C)CN([C@@H](C)CO)S2(=O)=O` gave Vaccinia inh inconclusive.
Screening O=C(C[C@@H]1CC[C@H]2[C@@H](COC[C@@H](O)CN2Cc2ccc(Oc3ccccc3)cc2)O1)N1CCc2ccccc2C1 returned Vaccinia inh inconclusive.
Screening CC(C)NC(=O)NCC[C@H]1CC[C@H](NS(=O)(=O)c2ccc(Oc3ccccc3)cc2)[C@H](CO)O1 returned Vaccinia inh -4 and Vaccinia inh Venus 5.
C[C@H]1CN([C@@H](C)CO)C(=O)c2cc(NC(=O)Cn3cnnn3)ccc2O[C@@H]1CN(C)S(=O)(=O)c1ccc(F)cc1 was read as Vaccinia inh -11 and Vaccinia inh Venus 5.
`C[C@H]1CN([C@@H](C)CO)C(=O)c2cc(NC(=O)Cc3ccccc3)ccc2O[C@H]1CN(C)S(C)(=O)=O` gave Vaccinia inh 6 and Vaccinia inh Venus -2.
